Bioassay records (PubChem)
eIF4H inh – inhibitors of RNA binding by human eIF4H. Q15056. hit rate 0.94% among 290,000. inhibition, % at 35 µM. eIF4H fluorescence polarization binding assay;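 active means 50% or more with normal probe brightness, or confirmed in later tests; about a fifth of its hits are not listed in these tables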;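 further: calls also rest on retests at 20 µM and on dose response follow-up; 0% = protein and probe with vehicle and 100% = probe without protein; strong numbers were not always called active; many hits fall short of the cut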
CSC inhib – cancer stem cell inhibition; inhibition, % at 7.5 µM; hit rate 1.1% among 300,000; cancer stem cell-like cells viability, luminescence;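 active means mean at 75% or more and at least half the replicates too; tested in HMLE shEcad cells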;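 further: 0% = median of negative and 100% = median of positive control wells; the first replicate is given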
MT1-MMP act inh – inhibitors of human MT1-MMP activation. AID 651647. hit rate 0.061% among 360,000. P50281. HT1080 RFP-PRO-GFP cells, GFP/RFP ratio fluorescence, overnight; percent of plate control window, DMSO zero. GFP/RFP ratio change, % at 20 µM;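 active means GFP/RFP ratio change of at least 30% with cell ATP level not reduced by more than half and red fluorescence within 50% of control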; further: strong numbers were not always called active
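Assay system – RFP-PRO-GFP reporter HT1080 cells · Compound dosing – single dose of 20 µM compound, 1% DMSO final · Incubation – overnight compound exposure at 37 °C · Measure – GFP/RFP fluorescence ratio · Benchmarks – DMSO wells and RFP-L50D-GFP cells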
HIV Env fusion – blocks HIV Env-driven cell-cell fusion; AID 651610; inhibition, % at 12.3 µM; HeLa-JRFL Env/CEM21 cell fusion, luciferase; hit rate 1.1% among 360,000;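 active means mean replicate inhibition score of at least 50 and every replicate individually at or above 50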;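 further: 0% = plate neutral controls and 100% = maraviroc near 300 nM; one replicate is shown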
Yeast UUG start – modulators of start codon recognition fidelity in yeast. activity score, % at 18.7 µM. S. cerevisiae UUG-firefly luciferase reporter, luminescence/redox ratio. hit rate 0.13% among 350,000;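 active means replicate mean at a twofold rise or more, about +100% in these data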;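 further: firefly luciferase made from a UUG start codon reports start codon fidelity; reporter light over untreated wells divided by growth signal over untreated wells; some hits fall short of that in this replicate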
PABP FP inh – PABP-poly(A) binding inhibition; P11940; PABP-poly(A) RNA binding, fluorescence polarization; inhibition, % at 35 µM; hit rate 1% among 290,000;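 active means 50% or more with normal probe brightness, or confirmed in later tests; about a fifth of its hits are not listed in these tables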;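 further: calls also rest on retests at 20 µM and on dose response follow-up; controls were probe without protein and protein plus probe with vehicle; some compounds called inactive have numbers as strong as hits; many hits fall short of the cut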
Target sequence (P11940 whole entry, looked up): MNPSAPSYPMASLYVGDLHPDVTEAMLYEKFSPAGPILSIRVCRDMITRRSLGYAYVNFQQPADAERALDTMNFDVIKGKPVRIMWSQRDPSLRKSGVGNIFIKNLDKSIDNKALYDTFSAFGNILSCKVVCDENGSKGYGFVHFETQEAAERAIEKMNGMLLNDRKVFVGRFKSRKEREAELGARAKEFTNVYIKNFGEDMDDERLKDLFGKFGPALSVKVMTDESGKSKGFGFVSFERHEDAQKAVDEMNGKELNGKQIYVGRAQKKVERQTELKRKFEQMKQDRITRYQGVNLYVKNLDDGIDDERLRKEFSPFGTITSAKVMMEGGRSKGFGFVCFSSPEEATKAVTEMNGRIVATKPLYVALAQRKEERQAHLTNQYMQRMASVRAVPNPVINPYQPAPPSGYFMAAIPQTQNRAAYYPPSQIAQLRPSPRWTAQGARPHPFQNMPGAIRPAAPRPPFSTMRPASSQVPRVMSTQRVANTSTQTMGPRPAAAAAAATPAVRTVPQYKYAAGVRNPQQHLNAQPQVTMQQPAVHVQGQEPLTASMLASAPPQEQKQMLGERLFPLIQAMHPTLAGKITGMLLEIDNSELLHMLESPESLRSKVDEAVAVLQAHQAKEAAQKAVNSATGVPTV
Rce1 inh – blocks yeast Ras-converting enzyme | calls only | AID 2563 | Q03530 | hit rate 0.27% among 290,000 | yeast membranes, quenched prenylated peptide cleavage fluorescence;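 active means fall in fluorescence gain of 50% or more versus controls, with final raw signal at or below 3038400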;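 further: plate controls were neutral control wells for no effect and wells lacking membranes for full effect; tested at 10 µM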
eIF4H inh retest – recorded beside eIF4H inh, whose call it bears; inhibition, %; compound at 20 µM; confirmation average;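 mean of two retest wells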
PABP FP inh retest – further read-out of PABP FP inh, marked with its call; inhibition, %; compound at 20 µM; confirmation repeats;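 mean of two retest wells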
MT1-MMP act inh RFP – also measured in MT1-MMP act inh; calls as there; RFP signal change, %; measured here: RFP expression control read;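 0 = vehicle wells; hits needed this value within 50% of zero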
Active calls of the source: *; i = inactive; . = not tested or not shown; & = joins results of further samples.

The first 4 compounds, to show the layout:
SMILES | eIF4H inh | CSC inhib | MT1-MMP act inh | MT1-MMP act inh RFP | HIV Env fusion | Yeast UUG start | PABP FP inh | Rce1 inh | others
Cc1cc(C)c(S(=O)(=O)Nc2ccc(C(N)=O)cc2)c(C)c1 | -4 | -20 | 1 | 3 | 9 | -20 | 10 | i
Cc1ccc2c(COC(=O)C3CC(=O)N(c4ccc5c(c4)OCCO5)C3)cc(=O)oc2c1 (centres undefined) | . | -24 | 1 | 4 | . | -16 | . | .
CC(=O)c1ccc(S(=O)(=O)N2CCCc3ccccc32)cc1 | 11 | 13 | 2 | -3 | -2 | -2 | 0 | i
CC(=O)c1cccc(NC(=O)C2CCCN2S(=O)(=O)c2ccccc2C(F)(F)F)c1 (centres undefined) | . | . | -2 | 1 | 28 | -8 | . | .

The listing, from the first entry:
SMILES | eIF4H inh | CSC inhib | MT1-MMP act inh | MT1-MMP act inh RFP | HIV Env fusion | Yeast UUG start | PABP FP inh | Rce1 inh | others
Cc1cc(C)c(S(=O)(=O)Nc2ccc(C(N)=O)cc2)c(C)c1 | -4 | -20 | 1 | 3 | 9 | -20 | 10 | i
Cc1ccc2c(COC(=O)C3CC(=O)N(c4ccc5c(c4)OCCO5)C3)cc(=O)oc2c1 (centres undefined) | . | -24 | 1 | 4 | . | -16 | . | .
CC(=O)c1ccc(S(=O)(=O)N2CCCc3ccccc32)cc1 | 11 | 13 | 2 | -3 | -2 | -2 | 0 | i
CC(=O)c1cccc(NC(=O)C2CCCN2S(=O)(=O)c2ccccc2C(F)(F)F)c1 (centres undefined) | . | . | -2 | 1 | 28 | -8 | . | .
CCn1c(=O)cc(OCC(=O)N2CCN(c3cccc(C(F)(F)F)c3)CC2)c2ccccc21 | 1 | -17 | 10 | 1 | 18 | -7 | 12 | i
Nc1nnc(-c2ccc(Cl)c(Cl)c2)s1 | 91 | 12 | -1 | 2 | -22 | -19 | 3 | i | eIF4H inh retest=2;PABP FP inh retest=11
O=C(Nc1ccc(F)cc1)C1COc2ccccc2O1 (centres undefined) | -11 | -6 | -1 | 3 | -17 | -2 | -3 | i
CN(C)c1nc(SCC(=O)Nc2ccc(Cl)c(Cl)c2)nc(N2CCOCC2)n1 | 1 | 0 | 2 | -12 | 12 | -12 | -3 | i
CCC(=O)N(C)C[C@H]1Oc2ncc(C#Cc3cccnc3)cc2C(=O)N([C@@H](C)CO)C[C@@H]1C | . | . | 1 | 4 | -13 | 2&-15 | . | .
O=C(NCCCCCc1nc2ccccc2[nH]1)c1ccccc1Cl | 7 | -15 | 9 | 4 | 10 | -27 | 6 | i
Cc1ccc2[nH]c(O)c(N=NC(=O)C(C)n3cnc4ccccc4c3=O)c2c1 (centres undefined) | 3 | -7 | -2 | 0 | -1 | . | -4 | i
COc1ccc(CSc2nnc(C)n2N)cc1Br | -2 | 0 | 3 | -2 | . | -16 | 3 | i
N#Cc1c2c(c(Nc3ccccc3)n3c1nc1ccccc13)CCC2 | 5 | -2 | -1 | 2 | . | -11 | 2 | i
C=CCNc1ncnc2c1ncn2[C@H]1CN(Cc2ccccc2)C[C@@H](COC(C)=O)O1 | . | . | -2 | -2 | 11 | -12 | . | .
CCN(CC)S(=O)(=O)c1ccc(Cl)c(C(=O)NCC2CCCO2)c1 (centres undefined) | -2 | . | 7 | 4 | . | -29 | 7 | i
CCCCCOc1ccc(CSc2ncn[nH]2)cc1 | 4 | -7 | 5 | -1 | . | -10 | -1 | i
CC(=O)c1c(C)[nH]c(C(=O)COC(=O)C2(C)CC2(Cl)Cl)c1C (centres undefined) | . | -6 | -8 | -19 | -18 | -18 | . | .
CCn1c([N+](=O)[O-])nc2c1c(=O)[nH]c(=O)n2C | 0 | . | -3 | 2 | 1 | -4 | -6 | i
COc1ccc(N2CSC3=C(C#N)C(c4cccs4)CC(=O)N3C2)cc1 (centres undefined) | 15* | -1 | -2 | 1 | -24 | -11 | 62* | i | eIF4H inh retest=54*;PABP FP inh retest=56*
CCC(Sc1ccccn1)C(=O)Nc1cccc([N+](=O)[O-])c1 (centres undefined) | 1 | 0 | 2 | -3 | 2 | . | 3 | i
CCCCc1nnc(NC(=O)C(C)Sc2nc(N)cc(=O)[nH]2)s1 (centres undefined) | -16 | -2 | -6 | 1 | -70 | 3 | 12 | i
CC(=O)c1ccc(NC(=S)Nc2ccn(Cc3ccc(Br)cc3)n2)cc1 | -9 | -8 | 10 | -1 | 11 | -15 | -2 | .
COc1ccc(-c2noc(CN(C)C(=O)c3ccoc3C)n2)cc1OC | -1 | 11 | 2 | 1 | -18 | 5 | 5 | i
CC1CCc2cc(F)ccc2N1C(=O)CSc1nnc2c3cc(F)ccc3n(C)c2n1 (centres undefined) | 13 | -3 | 2 | -3 | 4 | -10 | 20 | i
CCn1c(=N)n(CC(=O)c2cccc(OC)c2)c2ccccc21 | -3 | -13 | -4 | -3 | . | 0 | 3 | i
C=CCC1(C(=O)N(C)Cc2ccccc2)CCN(C(=O)OC(C)(C)C)CC1 | . | -3 | -2 | -6 | 7 | -3 | . | i
CC(C)C(C(=O)Nc1nccs1)c1ccccc1 (centres undefined) | 9 | -2 | 1 | -3 | . | -18 | -1 | i
Brc1cnc(N2CCCCC2)nc1N1CCOCC1 | -3 | -4 | -2 | -4 | -294 | -15 | -3 | i
CCN(CC)S(=O)(=O)c1ccc(N2CCOCC2)c(NC(=O)CN2C(=O)NC3(CCCC3)C2=O)c1 | . | . | -2 | 2 | -1 | -4 | . | .
O=C(NC(=S)NCc1ccccc1)c1cccs1 | 3 | -1 | 2 | 2 | -33 | -22 | 7 | i
CCCCN(C(=O)CSc1ncn[nH]1)c1c(N)n(Cc2ccccc2)c(=O)[nH]c1=O | . | -1 | 0 | 0 | . | -8 | . | .
O=C(O)CCCNC(=O)CCCn1nnc2ccccc2c1=O | -5 | -3 | -2 | -1 | -1 | 1 | 2 | i
COc1cccc(C2NC(=O)NC(C)=C2C(=O)Nc2ccc(C)cc2)c1 (centres undefined) | 0 | -8 | 1 | 1 | 0 | -12 | 6 | i
CCN(Cc1ccccc1)S(=O)(=O)c1cc(C(=O)O)ccc1OC | 3 | -16 | 1 | 4 | 11 | . | 6 | i
C[C@@H]1CN([C@H](C)CO)C(=O)c2cc(NC(=O)Nc3ccc(F)cc3)ccc2O[C@@H](C)CCCCO[C@H]1CN(C)S(=O)(=O)c1cccs1 | . | . | 8 | -5 | 17 | -4&-20 | . | .
C=CCNC(=O)CN1CCC(n2c(C)nc3cc(C(F)(F)F)ccc32)CC1 | -6 | 2 | -1 | -1 | -14 | -13 | 3 | i
CCC(CC)NC(=O)c1cc(OC)c(OC)cc1[N+](=O)[O-] | 3 | 1 | 4 | 2 | . | -11 | 2 | i
Cc1[nH]c(=O)c(C#N)c(C)c1Cl | -2 | -4 | 1 | 4 | -19 | . | -2 | i
CN(C)CCCNc1ncc(C(F)(F)F)cc1Cl | -4 | -16 | -3 | -2 | 13 | . | -8 | i
CC(C)N1CCC(n2nccc2NC(=O)c2ccc3c(c2)OCO3)CC1 | 1 | -8 | 3 | 9 | -42 | -8 | 1 | i
O=C(Cc1ccccc1)NNc1c2ccccc2nc2ccccc12 | 3 | -19 | 7 | -14 | -6 | . | 1 | i
O=C(Nc1ccc2c(c1)C(=O)NC2=O)c1ccc2ncsc2c1 | 20 | -8 | 5 | 8 | -16 | . | 0 | .
Cc1cc(N)n(Cc2ccc(Cl)cc2)n1 | 1 | 10 | 3 | 3 | 1 | . | 0 | .
CCN(CC)CCn1c2c(c(SCC(=O)Nc3nc4ccccc4s3)nc1=O)CCCC2 | . | 1 | -6 | -5 | 1 | . | . | i
COc1ccc(NC(=O)C2CCCN2C(=O)OCc2ccccc2)c(OC)c1 (centres undefined) | 1 | -3 | -4 | 2 | . | 1 | 2 | i
Cc1cc(=O)oc2cc(OCc3ccc(C(=O)N4CCN(c5ccc([N+](=O)[O-])cc5)CC4)cc3)ccc12 | 7 | . | 10 | -9 | 21 | . | -6 | i
CC1CCN(CC(O)COc2cccc(F)c2)CC1 (centres undefined) | -8 | 4 | -1 | 2 | 16 | -7 | -1 | i
Cc1cccc(N(C(=O)CNC(=O)c2ccco2)C(C(=O)NC2CCCCC2)c2cccnc2)c1 (centres undefined) | -8 | -16 | 0 | 0 | 41 | -19 | -7 | i
Cc1ccc(NC(=O)c2ccc(S(=O)(=O)N3CCOCC3)cc2)nc1 | 3 | -9 | -4 | -2 | -4 | -5 | 0 | i
COc1cc(OC)cc(-c2c(-c3cccs3)c3cc(-c4ccc(N(C)C)nc4)ccc3n2C)c1 | . | 86* | 3 | -6 | 14 | -17 | . | .
CC(Sc1nc(-c2ccccc2)c(-c2ccccc2)[nH]1)C(=O)NCC1CCCO1 (centres undefined) | . | . | -4 | -1 | 22 | -16 | . | .
Cc1ccc([C@H]2C(C(=O)O)=CC[C@@H](c3cccs3)N2S(=O)(=O)c2ccc(C)cc2)cc1 | . | . | -2 | 5 | 0 | -18 | . | .
COCC(C)NC(=O)C(C)Oc1ccccc1 (centres undefined) | 1 | -7 | -1 | 2 | 13 | -13 | 6 | i
O=C(NCc1ccco1)NC12CC3CC(CC(C3)C1)C2 | 7 | -2 | 1 | 5 | . | -21 | 8 | i
O=C(CSc1cccc2cccnc12)OCC(=O)c1ccccc1 | -7 | 0 | . | . | -67 | 4 | 1 | i
COc1ccc(CN2C(=O)C(CC(=O)NCc3cccc4ccccc34)CC(C(=O)N(C)C)=C2C)cc1 (centres undefined) | . | . | 2 | 3 | -53 | 6 | . | .
CCc1nnc(SCC(=O)NCCC2=CCCCC2)nc1CC | -11 | -16 | -2 | 3 | -5 | -26 | 3 | i
CC1CCCN(C(=O)CN(C)S(=O)(=O)c2ccc3c(c2)c(=O)n(C)c(=O)n3C)C1 (centres undefined) | -11 | 7 | -2 | 1 | -17 | -7 | 6 | i
O=C(Oc1ccc2c3c(c(=O)oc2c1)CCCC3)c1ccco1 | 12 | -3 | -1 | 6 | . | 11 | 6 | i
FC(F)Oc1ccc(NC(=S)NCc2ccccc2)cc1Cl | -1 | 29 | 5 | -5 | 24 | -19 | -5 | i

(cont.)
SMILES | eIF4H inh | CSC inhib | MT1-MMP act inh | MT1-MMP act inh RFP | HIV Env fusion | Yeast UUG start | PABP FP inh | Rce1 inh | others
COc1ccc(S(=O)(=O)N2CCCC2)cc1C(C)C | -7 | -6 | -1 | 1 | -22 | . | 1 | i
Cc1ccccc1NC(=O)CSc1nc(N)c2c3c(sc2n1)CSC(C)(C)C3 | -7 | -3 | -6 | -14 | . | . | -3 | i
Cc1cc(NC(=O)CSc2nc3c(cc2C#N)CCCCC3)no1 | 5 | 45 | 6 | 0 | -46 | -33 | 5 | i
CN(CCO)CCC(=O)NC1(C)CS(=O)(=O)CC1S(=O)(=O)O (centres undefined) | 10 | -2 | 0 | -3 | -3 | . | -8 | i
Cc1ccccc1Cc1c(C)nc2ncnn2c1C | -4 | -8 | -2 | -3 | -41 | . | 3 | i
Cc1ccc(-n2c(C)nn(CC#N)c2=O)cc1 | -5 | -13 | 2 | 1 | -12 | 346* | 16 | i
Cc1cc(C)nc(N2CCCC(CCC(=O)NCc3ccc(F)c(F)c3)C2)n1 (centres undefined) | -2 | 7 | 0 | 0 | 23 | . | 5 | i
O=C(Nc1ccc(S(=O)(=O)N2CCOCC2)cc1)c1cccc(Br)c1 | 0 | 2 | 2 | -1 | -77 | 3 | 1 | i
CN(Cc1ccccc1)c1ccc([N+](=O)[O-])cc1C(=O)O | -9 | -4 | 1 | 2 | 4 | . | -5 | i
CCC/C(O)=C1\C(=O)CCCC1=NCCCCCC(=O)O | -14 | 1 | 4 | 3 | . | . | 14 | i
CCOC(=O)C1=C(COC(=O)/C=C/c2ccc(OC)cc2)NC(=O)NC1C (centres undefined) | . | . | 6 | -7 | -43 | -5 | . | .

Not all compounds are listed; count on the stated rates, not on these rows.
